rRNA inh HTS: inhibitors of bacterial rRNA selective over humanized ribosomes | E. coli WT GFP vs humanized-ribosome RFP mutants, fluorescence, 24 h; active compounds read low; DMSO median 0, no signal -100 | GFP signal change (wild-type ribosome), % (no concentration beside the values) | 350,000 compounds, 1.6% hits;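 active means significant combined selectivity score with lowered wild-type GFP, culture density cut under 30%, mutant RFP and density less affected; inactive means any of these conditions unmet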; further: one replicate is shown; some compounds called inactive have numbers as strong as hits
rRNA inh HTS OD600: second read-out of rRNA inh HTS, no call of its own (marks repeat the call); OD600 change, %; measured here: OD600 growth;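 optical density of the mix in the first replicate; 0 = DMSO median and -100 = no signal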
rRNA inh HTS RFP: second read-out of rRNA inh HTS, no call of its own (marks repeat the call); RFP signal change, %; measured here: RFP humanized mutant strains;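 first replicate; 0 = DMSO median and -100 = no signal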
* = called active by the depositor.

nr	smiles	rRNA inh HTS	rRNA inh HTS OD600	rRNA inh HTS RFP
1	COC(=O)[C@@]12C[C@@H](CC(=O)N3CCSCC3)C(=O)N(Cc3cccc4ccccc34)C1=CCC(C)(C)C2	7.8	-12.3	1.9
2	CCC(=O)N1[C@H](C(=O)N2CCCCC2)[C@@H](CO)[C@@H]2Cn3c(ccc(-c4cccc(F)c4)c3=O)[C@@H]21	2.0	5.3	-0.5
3	C[C@H]1CN([C@@H](C)CO)S(=O)(=O)c2ccc(C#CC3CC3)cc2O[C@H]1CN(C)CC1CC1	4.0	-2.0	1.5
4	C[C@H](CO)N1C[C@H](C)[C@@H](CN(C)Cc2ccc(C(=O)O)cc2)OCCCC[C@H](C)Oc2ccc(NC(=O)Nc3ccc4c(c3)OCO4)cc2C1=O	0.8	5.4	-0.8
5	COc1ccc2c3c(n(C)c2c1)[C@@H](CO)NCC31CN(Cc2ccccc2Cl)C1	-1.4	0.7	5.3
6	CC(=O)N[C@@H]1CC[C@H](CCNC(=O)C2CC2)O[C@@H]1CO	1.8	9.6	-0.7
7	C[C@H](CO)N1C[C@H](C)[C@@H](CN(C)C(=O)Cc2ccccn2)Oc2ncc(C#CC3CCCC3)cc2C1=O	-4.0	-1.9	-0.4
8	COc1ccc(NC(=O)N(C)C[C@H]2OCCCC[C@@H](C)Oc3ccc(NS(=O)(=O)c4ccc(F)cc4)cc3C(=O)N([C@H](C)CO)C[C@H]2C)cc1	-0.2	5.7	0.6
9	CSc1ccc(Cn2c(C)c(C(=O)NCc3ccc(F)cc3)sc2=O)cc1	-7.7	-2.2	-8.7
10	COC(=O)[C@H]1[C@H](CO)[C@H]2Cn3c(ccc(-c4ccccc4)c3=O)[C@H]2N1Cc1ccccc1F	-6.2	-10.7	1.4
11	C[C@@H]1CCCCO[C@H](CN(C)S(=O)(=O)c2cn(C)cn2)[C@@H](C)CN([C@H](C)CO)C(=O)c2cc(NC(=O)Nc3ccc(C(F)(F)F)cc3)ccc2O1	-2.4	2.1	0.2
12	C[C@@H]1CN([C@H](C)CO)C(=O)c2cc(NC(=O)Nc3ccc(F)cc3)ccc2O[C@@H]1CN(C)S(C)(=O)=O	-3.6	-12.8	-3.6
13	C[C@H](CO)N1C[C@H](C)[C@@H](CN(C)Cc2ccc(-c3ccccc3)cc2)Oc2ccc(NC(=O)Cc3cn(C)c4ccccc34)cc2CC1=O	0.8	6.3	-1.7
14	C[C@H](CO)N1C[C@H](C)[C@@H](CN(C)S(=O)(=O)c2ccc(Cl)cc2)Oc2ccc(NC(=O)Nc3ccc(F)cc3)cc2CC1=O	-0.2	0.7	5.9
15	COc1ccccc1NC(=O)C[C@H]1CC[C@H]2[C@@H](COc3ccc(NC(C)=O)cc3C(=O)N2C)O1	-1.8	-11.1	-5.6
16	CO[C@@H]1CN(C)C(=O)c2ccc(NC(=O)Nc3ccccc3)cc2OC[C@@H](C)N(C(=O)Nc2c(C)noc2C)C[C@H]1C	2.8	6.2	-0.5
17	CO[C@@H]1CN(C)C(=O)c2ccc(NC(C)=O)cc2OC[C@@H](C)N(C(=O)CN(C)C)C[C@H]1C	3.1	-1.3	-4.9
18	COc1ccc(S(=O)(=O)Nc2ccc3c(c2)C(=O)N([C@@H](C)CO)C[C@H](C)[C@@H](CN(C)S(=O)(=O)c2ccccc2)OCCCC[C@@H](C)O3)cc1	4.6	-6.3	-0.7
19	CN(C)c1ccc(NC(=S)Nc2ccc3c(c2)c(=O)n(C)n3-c2ccc(C(C)(C)C)cc2)cc1	3.3	15.3	4.1
20	CO[C@@H]1CC[C@H]2CCN(C)C(=O)CCCN(C)C(=O)c3cccc(C#N)c3OC[C@H]1O2	2.9	4.7	-5.4
21	CC(C)N(C[C@H]1[C@H](c2ccccc2)[C@@H](CO)N1S(C)(=O)=O)C(=O)CN(C)C	3.2	6.6	-0.6
22	CC(C)CC#Cc1ccc2c(c1)O[C@@H](CN(C)C(=O)Cc1ccncc1)[C@H](C)CN([C@H](C)CO)S2(=O)=O	1.8	-1.3	15.0
23	CC(C)NC(=O)N(C)C[C@@H]1Oc2c(NC(=O)Nc3ccccc3)cccc2C(=O)N([C@@H](C)CO)C[C@@H]1C	0.9	-0.5	0.2
24	O=C([C@H]1O[C@@H](n2ccc(=O)[nH]c2=O)[C@H](O)[C@@H]1O)N1CCN(Cc2ccccn2)CC1	19.6	12.7	1.1
25	C[C@@H]1CN([C@H](C)CO)S(=O)(=O)c2ccc(C#CCC3CCCC3)cc2O[C@@H]1CN(C)C(=O)c1ccccn1	-5.5	-45.9	34.1

Along the list, from the results shown.
rRNA inh HTS OD600, compounds 19–24, in order: 15.3, 4.7, 6.6, -1.3, -0.5, 12.7
rRNA inh HTS RFP, compounds 19–24, in order: 4.1, -5.4, -0.6, 15.0, 0.2, 1.1

Later entries:
nr	smiles	rRNA inh HTS	rRNA inh HTS OD600	rRNA inh HTS RFP
26	C[C@@H]1CCCCO[C@@H](CN(C)S(=O)(=O)c2cn(C)cn2)[C@H](C)CN([C@H](C)CO)C(=O)c2cc(NC(=O)CCC(F)(F)F)ccc2O1	1.1	4.3	-0.6
27	O=C(NC1CCCC1)N1CCCCN2[C@H](CO)[C@@H](c3ccc(/C=C/c4ccccc4)cc3)[C@H]2C1	-59.2	-75.4	-15.3
28	CCOC(=O)[C@]12CCC=C1N(Cc1ccccc1)C(=O)[C@H](CC(=O)NCCc1ccccc1OC)C2	-16.1	-18.4	6.1
29	C[C@H]1CN([C@@H](C)CO)C(=O)c2cccc(NS(=O)(=O)c3cn(C)cn3)c2O[C@@H]1CN(C)Cc1ccccc1	2.0	-9.3	-1.6
30	Cc1ccc(S(=O)(=O)N[C@@H]2CC[C@H](CCn3cc(-c4ccccc4F)nn3)O[C@H]2CO)cc1	-3.5	-8.3	1.9
31	Cc1ccc(-c2ccc3c(c2)O[C@@H](CN(C)C(=O)C2CCCCC2)[C@H](C)CN([C@@H](C)CO)S3(=O)=O)cc1	-2.5	3.0	-4.9
32	C[C@H]1CCCCO[C@@H](CN(C)C(=O)CCCN(C)C)[C@@H](C)CN([C@@H](C)CO)C(=O)c2cc(NS(=O)(=O)c3ccc(Cl)cc3)ccc2O1	2.6	3.3	0.0
33	CN1C(=O)[C@H]2[C@@H](c3ccc(C(F)(F)F)cc3)N[C@]3(CCCN(Cc4ccc(F)cc4)C3=O)[C@H]2C1=O	-1.8	-21.0	-4.9
34	CO[C@@H]1CN(C)C(=O)c2cc(NC(=O)Nc3ccccc3F)ccc2OC[C@@H](C)N(Cc2ccccc2F)C[C@H]1C	-2.1	3.9	1.2
35	Cc1noc(C)c1S(=O)(=O)Nc1ccc2c(c1)C(=O)N([C@@H](C)CO)C[C@H](C)[C@H](CN(C)C(=O)Nc1ccc(F)cc1)OCCCC[C@H](C)O2	-0.5	-3.9	1.0
36	COc1ccc2c3c([nH]c2c1)[C@H](CO)N(C(=O)NC(C)C)CC31CN(C(=O)c2ccncc2)C1	5.8	5.1	-0.1
37	O=C(C[C@@H]1C[C@@H]2c3cc(NC(=O)Nc4ccccc4)ccc3O[C@@H]2[C@H](CO)O1)NCC(F)(F)F	4.6	2.5	0.6
38	COCC(=O)N(C)C[C@@H]1Oc2ncc(-c3ccccc3C)cc2C(=O)N([C@@H](C)CO)C[C@H]1C	4.4	12.1	-2.3
39	Cc1cccc(S(=O)(=O)N[C@H]2CC[C@@H](CCNC(=O)c3cnccn3)O[C@H]2CO)c1	-0.6	-1.2	-2.7
40	CCS(=O)(=O)N[C@H]1C=C[C@H](CC(=O)NC2Cc3ccccc3C2)O[C@H]1CO	-0.3	5.1	0.3
41	CC=Cc1ccc2n(c1=O)C[C@H]1[C@H](CO)[C@@H](C(=O)NC3CCC3)[C@@H]2N1C(=O)c1ccccn1 (mixture of isomers)	0.8	4.2	-1.8
42	CC(=O)C[C@H]1SC[C@@H](C(C)C)N1S(=O)(=O)c1ccc(C)cc1	-1.0	-1.5	1.2
43	COc1cc(C=C2CN(C)C(=O)C2=O)ccc1O	-6.1	1.7	0.1
44	CCCC#Cc1ccc([C@H]2[C@@H](CO)N3CCCCN(S(=O)(=O)CC)C[C@@H]23)cc1	-0.3	-8.0	5.5
45	COc1ccc2c3c(n(C)c2c1)[C@@H](CO)N(C(=O)c1ccccc1)CC31CN(C)C1	2.9	3.1	-4.8
46	COc1ccccc1S(=O)(=O)N(C)C[C@@H]1OCc2ccccc2-c2c(n(C)c3ccccc23)C(=O)N([C@H](C)CO)C[C@@H]1C	-4.0	-0.3	-5.9
47	Cc1cc(Br)cn2c(Cc3ccsc3)c(C(C)(C)C)nc12	11.9	7.9	1.0
48	Cc1noc(C)c1NC(=O)Nc1ccc2c(c1)CC(=O)N([C@@H](C)CO)C[C@H](C)[C@H](CN(C)CC1CCCCC1)O2	-2.6	0.9	-0.8
49	C[C@@H]1CN([C@@H](C)CO)C(=O)Cc2cc(N(C)C)ccc2O[C@H]1CN(C)Cc1ccncc1	-3.5	5.4	-1.1
50	Cc1ccc(S(=O)(=O)Nc2ccc3c(c2)C(=O)N([C@H](C)CO)C[C@H](C)[C@@H](CN(C)C(=O)Nc2ccc(F)cc2)O3)cc1	2.1	-0.2	0.2
51	C[C@@H]1CCCCO[C@@H](CN(C)C(=O)Nc2ccc(F)cc2)[C@@H](C)CN([C@H](C)CO)C(=O)c2cc(NS(=O)(=O)c3ccc(Cl)cc3)ccc2O1	0.6	-2.7	0.7
52	CCC(=O)N(C)C[C@H]1Oc2ncc(-c3ccccc3F)cc2C(=O)N([C@@H](C)CO)C[C@H]1C	0.6	6.2	-0.9
53	COc1ccc(S(=O)(=O)N(C)C[C@H]2Oc3c(NC(=O)c4ccc(-c5nccs5)cc4)cccc3C(=O)N([C@H](C)CO)C[C@H]2C)cc1	-2.0	-5.9	-0.2
54	O=C(C[C@H]1C[C@H]2c3cc(NC(=O)CC4CC4)ccc3O[C@H]2[C@@H](CO)O1)NCCc1ccccc1	-1.6	9.4	-2.5
55	C[C@@H]1CN([C@@H](C)CO)C(=O)c2cc(-c3cccc(C(=O)N(C)C)c3)cnc2O[C@H]1CN(C)S(=O)(=O)c1ccc(F)cc1	-7.4	2.9	-2.3
56	Cc1ccc(S(=O)(=O)N(C)C)cc1NC(=O)C(C)OC(=O)CC1CC2CCC1C2 (stereo unspecified)	-6.3	-12.3	-1.7
57	C[C@H]1CN([C@@H](C)CO)C(=O)Cc2cc(NC(=O)Nc3cccc4ccccc34)ccc2O[C@H]1CN(C)Cc1ccc(Oc2ccccc2)cc1	3.5	1.6	0.0
58	Cc1noc(C)c1NC(=O)N(C)C[C@H]1Oc2ccc(NC(=O)Nc3ccccc3)cc2CC(=O)N([C@H](C)CO)C[C@@H]1C	9.6	-0.6	2.4
59	C[C@@H]1CN([C@H](C)CO)C(=O)c2cc(C#CC3CCCCC3)cnc2O[C@H]1CN(C)S(=O)(=O)c1ccc(F)cc1	-0.9	2.2	-1.4
60	C[C@@H]1CCCCO[C@H](CN(C)Cc2ccncc2)[C@H](C)CN([C@@H](C)CO)C(=O)c2cc(NC(=O)Nc3ccccc3)ccc2O1	-3.1	-15.6	13.1
61	Cc1cccc(NC(=O)c2cccc(S(=O)(=O)N(C)C3CCCCC3)c2)n1	-24.0	-35.2	-2.7
62	C[C@H]1CN([C@@H](C)CO)C(=O)c2cc(NC(=O)C3CCCCC3)ccc2O[C@H]1CN(C)Cc1ccncc1	2.0	-2.2	-1.5
63	CC(C)NC(=O)N(C)C[C@@H]1Oc2c(NC(=O)Nc3ccc(C(F)(F)F)cc3)cccc2C(=O)N([C@H](C)CO)C[C@H]1C	2.6	-4.3	-0.3
64	C[C@@H]1CN([C@@H](C)CO)C(=O)c2cccc(NC(=O)c3ccncc3)c2O[C@H]1CN(C)C(=O)Nc1ccc(C(F)(F)F)cc1	-2.3	6.9	-1.7
65	O=S(=O)(Cc1ccccc1)N1CCCCN2[C@H](CO)[C@@H](c3ccc(-c4cncnc4)cc3)[C@H]2C1	1.0	-8.2	-1.5
66	CCc1nc(NCC2CC2)c2nnn(Cc3ccccc3)c2n1	14.9	20.4	3.5
67	CCC(=O)Nc1ccc2c(c1)OC[C@H](C)N(C(=O)c1ccncc1)C[C@@H](C)[C@@H](OC)CN(C)C2=O	0.3	-0.3	-2.0
68	Cc1ccc(S(=O)(=O)Nc2cccc3c2O[C@@H](CN(C)Cc2ccc(C(F)(F)F)cc2)[C@@H](C)CN([C@H](C)CO)C3=O)cc1	-1.0	-0.9	-1.8
69	COc1ccccc1-c1cccc(-c2nc(C(=O)N3CCN(C)CC3)cc3c2[C@H](CCO)N([S@@](=O)C(C)(C)C)C3)c1	2.1	1.4	1.7
70	C[C@@H]1CN([C@H](C)CO)S(=O)(=O)c2ccc(-c3cncnc3)cc2O[C@H]1CN(C)CC1CC1	1.8	-2.7	-2.5

A different layout for 3 compounds above:
57) C[C@H]1CN([C@@H](C)CO)C(=O)Cc2cc(NC(=O)Nc3cccc4ccccc34)ccc2O[C@H]1CN(C)Cc1ccc(Oc2ccccc2)cc1
58) Cc1noc(C)c1NC(=O)N(C)C[C@H]1Oc2ccc(NC(=O)Nc3ccccc3)cc2CC(=O)N([C@H](C)CO)C[C@@H]1C
59) C[C@@H]1CN([C@H](C)CO)C(=O)c2cc(C#CC3CCCCC3)cnc2O[C@H]1CN(C)S(=O)(=O)c1ccc(F)cc1
Assay by compound | 57 | 58 | 59
rRNA inh HTS | 3.5 | 9.6 | -0.9
rRNA inh HTS OD600 | 1.6 | -0.6 | 2.2
rRNA inh HTS RFP | 0.0 | 2.4 | -1.4

High-throughput results from PubChem BioAssay.

The list is partial, so the mix of outcomes need not match the whole.
